FGF22 binding: shifts melting point of recombinant human FGF22. Q9HCT0. recombinant FGF22 thermal shift, SYPRO orange fluorescence; percent of sucrose octasulfate shift, DMSO zero. calls only at 9.99 µM. hit rate 1.5% among 340,000. AID 651658;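 active = melting point raised past a set limit in the mean and every replicate; three in four hits are not shown here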
Target sequence (Q9HCT0 whole entry, looked up): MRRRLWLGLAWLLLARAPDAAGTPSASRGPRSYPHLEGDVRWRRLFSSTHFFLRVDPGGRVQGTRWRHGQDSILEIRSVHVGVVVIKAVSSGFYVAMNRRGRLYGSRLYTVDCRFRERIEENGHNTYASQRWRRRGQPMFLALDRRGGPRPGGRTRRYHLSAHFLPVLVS
rRNA inh HTS: inhibits bacterial ribosomal RNA function over humanized ribosomes | E. coli WT GFP vs humanized-ribosome RFP mutants, fluorescence, 24 h; stronger effect = lower value; DMSO median 0, no signal -100 | AID 720706 | GFP signal change (wild-type ribosome), % (concentration not given with the values) | hit rate 1.6% among 350,000;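 active = significant combined selectivity score with lowered wild-type GFP, culture density cut under 30%, mutant RFP and density less affected; inactive = any of these conditions unmet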; also: one replicate is shown; some compounds called inactive have numbers as strong as hits
rRNA inh HTS OD600: second read-out of rRNA inh HTS, no call of its own (marks repeat the call); OD600 change, %; measured here: OD600 growth;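 optical density of the mix in the first replicate; 0 = DMSO median and -100 = no signal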
rRNA inh HTS RFP: recorded beside rRNA inh HTS, whose call it bears; RFP signal change, %; measured here: RFP humanized mutant strains;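 first replicate; 0 = DMSO median and -100 = no signal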
* = called active by the depositor; i = inactive; & = joins results of further samples. This is a subset; the hit share may differ from the screen's.

Start of the listing, in advance:
FGF22 binding,rRNA inh HTS,Molecule,rRNA inh HTS OD600,rRNA inh HTS RFP
i,4,CCCC(=O)Nc1ccc2c(c1)OC[C@@H](C)N(C(=O)c1cccnc1)C[C@@H](C)[C@H](OC)CN(C)C2=O,4,2.3
i,-28&-5,C[C@H](CO)N1C[C@H](C)[C@H](CN(C)C(=O)Nc2cccc(F)c2)Oc2cc(Br)ccc2S1(=O)=O,-27&-6,-2.0&-1.5
i,5,COc1ccc2c3c(n(C)c2c1)[C@H](CO)N(C(=O)CN(C)C)CC31CN(C(=O)NC(C)C)C1,11,-0.5
i,3,CCC(=O)Nc1ccc2c(c1)C(=O)N(C)C[C@@H](OC)[C@@H](C)CN(C(=O)CC)[C@@H](C)CO2,4,-3.7

This part in full (from the top)
FGF22 binding,rRNA inh HTS,Molecule,rRNA inh HTS OD600,rRNA inh HTS RFP
i,4,CCCC(=O)Nc1ccc2c(c1)OC[C@@H](C)N(C(=O)c1cccnc1)C[C@@H](C)[C@H](OC)CN(C)C2=O,4,2.3
i,-28&-5,C[C@H](CO)N1C[C@H](C)[C@H](CN(C)C(=O)Nc2cccc(F)c2)Oc2cc(Br)ccc2S1(=O)=O,-27&-6,-2.0&-1.5
i,5,COc1ccc2c3c(n(C)c2c1)[C@H](CO)N(C(=O)CN(C)C)CC31CN(C(=O)NC(C)C)C1,11,-0.5
i,3,CCC(=O)Nc1ccc2c(c1)C(=O)N(C)C[C@@H](OC)[C@@H](C)CN(C(=O)CC)[C@@H](C)CO2,4,-3.7
i,6,CC(C)C#Cc1cnc2c(c1)C(=O)N([C@@H](C)CO)C[C@H](C)[C@@H](CN(C)Cc1ccccc1F)O2,11,1.0
i,-6,COc1cccc(S(=O)(=O)N2CCC3(CC2)CN[C@@H](CO)c2c3c3ccc(OC)cc3n2C)c1,-41,8.3
i,-5,COc1ccccc1CNC(=O)C[C@@H]1C[C@H]2c3cc(NC(=O)NC4CCCC4)ccc3O[C@H]2[C@H](CO)O1,-8,2.1
i,-3,C[C@H](CO)N1C[C@H](C)[C@H](CN(C)C(=O)CC2CC2)Oc2cc(-c3ccccc3)ccc2S1(=O)=O,-10,2.4
i,1,C[C@@H]1CN([C@@H](C)CO)C(=O)Cc2cc(NS(C)(=O)=O)ccc2O[C@@H]1CN(C)C(=O)Nc1cccc2ccccc12,3,1.1
i,7,C[C@H]1CN([C@@H](C)CO)C(=O)c2cc(-c3ccccc3)cnc2O[C@H]1CN(C)C(=O)Cc1ccccn1,4,-0.2
i,2,C[C@@H]1CN([C@@H](C)CO)C(=O)c2cc(NS(=O)(=O)c3ccccc3)ccc2O[C@H]1CN(C)Cc1ccncc1,4,-0.3
i,0,O=C(N[C@H]1CC[C@@H](CCNS(=O)(=O)c2ccccc2Cl)O[C@H]1CO)c1ccc(F)cc1,-5,1.7
i,0,C[C@H]1CN([C@@H](C)CO)S(=O)(=O)c2ccc(C#Cc3ccccn3)cc2O[C@H]1CN(C)CC1CC1,0,3.4
i,10,CC(=O)N1CCCCN2[C@@H](CO)[C@@H](c3ccc(C#Cc4ccccc4F)cc3)[C@@H]2C1,5,4.8
i,0,C[C@@H]1CN([C@H](C)CO)C(=O)c2cccc(NS(=O)(=O)c3ccccc3)c2O[C@H]1CN(C)S(=O)(=O)c1cn(C)cn1,-9,-3.8
i,0,CO[C@@H]1CN(C)C(=O)c2cc(NS(=O)(=O)c3cccc(Cl)c3)ccc2OC[C@H](C)NC[C@H]1C,-6,-1.0
i,5,C[C@@H]1CCCCO[C@@H](CN(C)C(=O)CCC(F)(F)F)[C@@H](C)CN([C@@H](C)CO)C(=O)c2cc(NS(=O)(=O)c3ccccc3)ccc2O1,12,-1.6
i,0,CC(=O)N1CCCCN2[C@@H](CO)[C@@H](c3ccc(-c4cccc(C(=O)N(C)C)c4)cc3)[C@@H]2C1,8,-1.8
i,-1,C[C@H](CO)N1C[C@H](C)[C@@H](CN(C)Cc2ccc(C(=O)O)cc2)Oc2c(NC(=O)NC3CCCCC3)cccc2C1=O,5,-1.2
i,3,O=C(Cc1ccncc1)NCC[C@H]1CC[C@H](NC(=O)C2CCOCC2)[C@@H](CO)O1,7,-0.3
i,2,O=C(CN1CCOCC1)N1CCCCN2[C@H](C1)[C@H](c1ccc(-c3ccccc3F)cc1)[C@@H]2CO,13,6.0
i,-6,C[C@@H]1CN([C@H](C)CO)S(=O)(=O)c2ccc(-c3cccnc3)cc2O[C@@H]1CN(C)C(=O)NC1CCCC1,-3,-1.3
i,7,O=C(C[C@@H]1C[C@H]2c3cc(NC(=O)C4CCOCC4)ccc3O[C@H]2[C@@H](CO)O1)NCc1cccc(F)c1,-2,-0.2
i,4,O=C(CC1CC1)Nc1ccc2c(c1)[C@H]1C[C@H](CC(=O)N3CCOCC3)O[C@@H](CO)[C@H]1O2,8,0.7
i,3,CCCNC(=O)N1C[C@H](C)[C@@H](OC)CN(C)C(=O)c2ccc(NC(=O)CCC)cc2OC[C@@H]1C,1,-4.0
i,-1,C[C@@H]1CN([C@@H](C)CO)C(=O)c2cccc(NC(=O)NC3CCCCC3)c2O[C@H]1CN(C)CC1CCCCC1,-5,1.1
i,5,CCCNC(=O)N1[C@H](C#N)[C@H](c2ccccc2)[C@@H]1CO,14,-5.5
i,-12,C[C@@H]1CN([C@@H](C)CO)S(=O)(=O)c2ccc(Br)cc2O[C@H]1CN(C)S(=O)(=O)c1cccc(F)c1,-48,14
i,1,CCC(=O)Nc1ccc2c(c1)C(=O)N(C)C[C@@H](OC)[C@H](C)CN(C(=O)c1ccccc1F)[C@@H](C)CO2,6,-0.2
i,1,Cc1noc(C)c1S(=O)(=O)Nc1cccc2c1O[C@H](CN(C)Cc1ccc(Oc3ccccc3)cc1)[C@H](C)CN([C@H](C)CO)C2=O,-13,-0.7
i,4,C[C@@H]1CN([C@H](C)CO)C(=O)c2cc(NC(=O)Nc3ccc4c(c3)OCO4)ccc2O[C@H]1CN(C)C(=O)Nc1ccc2c(c1)OCO2,7,0.0
i,3,COc1ccc(-c2ccc([C@H]3[C@H]4CN(CC5CCOCC5)CCCCN4[C@H]3CO)cc2)cc1,12,4.0
i,3,CCNC(=O)C[C@H]1C=C[C@H](NS(=O)(=O)c2ccc(F)cc2)[C@H](CO)O1,-1,-1.0
i,2,CO[C@H]1CN(C)C(=O)c2ccc(NS(C)(=O)=O)cc2OC[C@H](C)N(Cc2cncnc2)C[C@H]1C,3,-3.9
i,1,C[C@@H]1CN([C@@H](C)CO)C(=O)Cc2cc(NS(=O)(=O)c3ccc(Cl)cc3)ccc2O[C@@H]1CN(C)S(=O)(=O)c1ccc(F)cc1,-8,4.4
i,1,COc1ccc(S(=O)(=O)Nc2cccc3c2O[C@@H](CN(C)CC2CC2)[C@@H](C)CN([C@H](C)CO)C3=O)cc1,6,1.5
i,-1,C[C@@H]1CCCCO[C@@H](CN(C)CC2CC2)[C@H](C)CN([C@H](C)CO)C(=O)c2cc(NS(C)(=O)=O)ccc2O1,-6,-1.5
i,2,CO[C@@H]1CN(C)C(=O)c2cc(NC(=O)c3cnccn3)ccc2OC[C@@H](C)N(CC2CC2)C[C@H]1C,7,-0.3
i,-15,CCC(=O)N(C)C[C@@H]1Oc2cc(C#CCC(C)C)ccc2S(=O)(=O)N([C@H](C)CO)C[C@H]1C,-53,5.4
i,2,COc1ccc(C#Cc2ccc3c(c2)[C@H]2[C@H](CCN2C(=O)NC(C)C)[C@H](CO)N3C)cc1,4,5.7
i,3,C[C@@H]1CCCCO[C@@H](CN(C)CC2CCCCC2)[C@H](C)CN([C@H](C)CO)C(=O)c2cc(NC(=O)Cc3ccccc3)ccc2O1,4,0.8
i,4,CN(C)C(=O)C[C@@H]1CC[C@H](NS(=O)(=O)c2ccccc2)[C@@H](CO)O1,15,1.6
i,1,Cc1ccc(S(=O)(=O)N(C)C[C@@H]2Oc3ccc(NC(=O)Nc4c(C)noc4C)cc3CC(=O)N([C@H](C)CO)C[C@H]2C)cc1,9,0.5
i,2,Cc1noc(C)c1NC(=O)N(C)C[C@H]1OCCCC[C@@H](C)Oc2ccc(NC(=O)CCC(F)(F)F)cc2C(=O)N([C@@H](C)CO)C[C@H]1C,4,-0.6
i,3,Cc1noc(C)c1S(=O)(=O)Nc1cccc2c1O[C@@H](CN(C)S(=O)(=O)c1cccs1)[C@@H](C)CN([C@@H](C)CO)C2=O,2,-0.1
i,-4,C[C@@H]1CN([C@H](C)CO)C(=O)c2cccc(NC(=O)Nc3ccccc3)c2O[C@H]1CN(C)Cc1ccc(-c2ccccc2)cc1,-1,-2.3
i,0,C[C@@H](NC(=O)C[C@H]1C=C[C@H](NC(=O)Nc2ccc3c(c2)OCO3)[C@H](CO)O1)c1ccccc1,-3,-1.2
i,3,C[C@H](CO)N1C[C@H](C)[C@@H](CN(C)CC2CC2)OCCCC[C@H](C)Oc2ccc(NC(=O)Nc3ccc(C(F)(F)F)cc3)cc2C1=O,-11,5.1
i,7,CC(C)NC(=O)N(C)C[C@@H]1Oc2ncc(-c3cncnc3)cc2C(=O)N([C@@H](C)CO)C[C@H]1C,7,-2.6
i,-3,CCC(=O)N1C[C@H](C)[C@H](OC)CN(C)C(=O)c2cc(NC(=O)c3ccccc3)ccc2OC[C@@H]1C,2,0.3
i,6,C[C@H]1CN([C@@H](C)CO)S(=O)(=O)c2ccc(C#CC3(O)CCCC3)cc2O[C@@H]1CN(C)C(=O)Nc1cccc(F)c1,-3,2.0
i,2,O=C(CN1CCOCC1)NCC[C@H]1CC[C@H](NS(=O)(=O)c2ccc(F)cc2)[C@@H](CO)O1,1,-0.7
i,-5,O=C(C[C@@H]1C[C@H]2c3cc(NC(=O)CC4CC4)ccc3O[C@H]2[C@H](CO)O1)NCc1ccccc1F,-9,-0.9
i,-36*,Brc1ccccc1C1Cc2nnccc2CN1 (stereo not drawn),-18*,1.8*
i,-4,COc1cccc(NC(=O)Nc2ccc3c(c2)C(=O)N(C)C[C@H](OC)[C@H](C)CN[C@@H](C)CO3)c1,1,0.7
i,-2,O=C(C[C@@H]1CC[C@@H]2[C@H](COC[C@H](O)CN2S(=O)(=O)c2ccc(F)cc2)O1)N[C@@H]1CCN(Cc2ccccc2)C1,-4,-1.5
i,-1,CCC(=O)N1C[C@H](C)[C@H](OC)CN(C)C(=O)c2ccc(NC(=O)c3cnccn3)cc2OC[C@@H]1C,-3,-1.0
i,3,C[C@H](CO)N1C[C@H](C)[C@@H](CN(C)S(=O)(=O)c2cn(C)cn2)Oc2ccc(NC(=O)Cc3cn(C)c4ccccc34)cc2CC1=O,-3,-1.5
i,0,C[C@@H]1CN([C@H](C)CO)C(=O)c2ccccc2-c2ccccc2CO[C@@H]1CN(C)C(=O)Nc1cccc(Cl)c1Cl,0,0.0
i,2,C[C@H](CO)N1C[C@H](C)[C@@H](CN(C)S(=O)(=O)c2cn(C)cn2)Oc2ccc(NC(=O)CCCN(C)C)cc2C1=O,12,-2.7

A draw from above in order of formula weight, low to high:
FGF22 binding,rRNA inh HTS,Molecule,rRNA inh HTS OD600,rRNA inh HTS RFP
i,2,CO[C@H]1CN(C)C(=O)c2ccc(NS(C)(=O)=O)cc2OC[C@H](C)N(Cc2cncnc2)C[C@H]1C,3,-3.9
i,3,C[C@@H]1CCCCO[C@@H](CN(C)CC2CCCCC2)[C@H](C)CN([C@H](C)CO)C(=O)c2cc(NC(=O)Cc3ccccc3)ccc2O1,4,0.8
i,1,C[C@@H]1CN([C@@H](C)CO)C(=O)Cc2cc(NS(=O)(=O)c3ccc(Cl)cc3)ccc2O[C@@H]1CN(C)S(=O)(=O)c1ccc(F)cc1,-8,4.4

Next part:
FGF22 binding,rRNA inh HTS,Molecule,rRNA inh HTS OD600,rRNA inh HTS RFP
i,1,C[C@@H](NC(=O)C[C@H]1C[C@H]2c3cc(NC(=O)CN(C)C)ccc3O[C@H]2[C@@H](CO)O1)c1ccccc1,3,-2.6
i,0,COc1ccc(NC(=O)N(C)C[C@H]2Oc3cc(-c4cccc(C(=O)N(C)C)c4)ccc3S(=O)(=O)N([C@H](C)CO)C[C@@H]2C)cc1,6,-1.8
i,3,O=C(Cc1ccccc1)N[C@H]1C=C[C@@H](CC(=O)N2CCOCC2)O[C@@H]1CO,6,1.3
i,0,COc1ccc(S(=O)(=O)Nc2ccc3c(c2)CC(=O)N([C@@H](C)CO)C[C@@H](C)[C@@H](CN(C)CC2CCCCC2)O3)cc1,-12,1.4
i,4,C[C@@H]1CCCCO[C@H](CN(C)Cc2ccccc2)[C@@H](C)CN([C@H](C)CO)C(=O)c2cc(NC(=O)NC3CCCCC3)ccc2O1,-6,-0.8
i,-3,CC(=O)N(C)C[C@@H]1[C@@H](c2ccc(C3=CCCCC3)cc2)[C@@H](CO)N1CC1CC1,-8,8.6
i,2,C[C@H](CO)N1C[C@H](C)[C@H](CN(C)S(=O)(=O)c2ccc(Cl)cc2)Oc2ccc(NS(=O)(=O)c3ccc(F)cc3)cc2CC1=O,-15,5.0
i,1,N#C[C@H]1[C@@H](c2ccccc2-c2ccc(F)cc2)[C@@H](CO)N1C(=O)Cc1ccccc1,-29,-4.3
i,-1,CCCNC(=O)C[C@H]1CC[C@@H]2[C@H](COC[C@@H](O)CN2Cc2ccccc2F)O1,4,-6.5
i,-2,C[C@@H]1CN([C@H](C)CO)C(=O)Cc2cc(NC(=O)Nc3cccc4ccccc34)ccc2O[C@@H]1CN(C)S(=O)(=O)c1cn(C)cn1,-5,3.7
i,1,COc1ccc2c3c(n(C)c2c1)[C@H](CO)N(Cc1ccccc1F)CC31CN(C(C)=O)C1,14,0.8
